# Assay outcomes from PubChem BioAssay.
# Rango dissoc inh: inhibition of RanGTP-driven Rango-importin beta dissociation. AID 540253. Biochemical FRET Rango-importin beta, RanGTP-induced dissociation. Potency, µM (titrated, usually from 46.1 µM), inactives show at the highest dose activity change, negative = inhibition. 340,000 tested, 0.071% active; active means falling FRET ratio curve, often poorly fitted, with flat reads before Ran was added; inconclusive means other falling curves, or compound fluorescence or quenching; inactive means flat or rising ratio curve;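 further: potency means the concentration at half of the fitted maximal effect; % of control where 0% means no effect; nearly all actives have a fitted effect of over 45% in size; -100% = wells without RanGTP and RCC1; the record marks most hits as doubtful in a second field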
#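 Rango/importin beta premix (0.1/0.25 uM final), PBS + 1 mM DTT + 0.02% Tween-20 + 0.1% BSA; cpd 5 min RT; FRET pre-read; + RanGTP-RCC1 (0.6 uM Ran, 2 mM GTP, 0.2 uM RCC1); 45 min RT; FRET post-read, ex 430, em 486/530 nm.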
# GLA inh pH 4.5: alpha-galactosidase A (human) inhibition, pH 4.5; purified enzyme, 4-MU-alpha-Gal fluorescence, pH 4.5; activity change, negative = inhibition, % at 105 µM; 230,000 tested, under 10 active; P06280; AID 1467; inconclusive = small, poorly fitted or top-dose-only inhibition, or a rising curve; inactive = flat fitted curve, though single readings scatter; no compound was filed as active;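 further: 0% = full activity with enzyme and -100% = basal without enzyme; dose as in the result columns while the protocol names 77 µM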
# Target sequence (P06280 whole entry, looked up): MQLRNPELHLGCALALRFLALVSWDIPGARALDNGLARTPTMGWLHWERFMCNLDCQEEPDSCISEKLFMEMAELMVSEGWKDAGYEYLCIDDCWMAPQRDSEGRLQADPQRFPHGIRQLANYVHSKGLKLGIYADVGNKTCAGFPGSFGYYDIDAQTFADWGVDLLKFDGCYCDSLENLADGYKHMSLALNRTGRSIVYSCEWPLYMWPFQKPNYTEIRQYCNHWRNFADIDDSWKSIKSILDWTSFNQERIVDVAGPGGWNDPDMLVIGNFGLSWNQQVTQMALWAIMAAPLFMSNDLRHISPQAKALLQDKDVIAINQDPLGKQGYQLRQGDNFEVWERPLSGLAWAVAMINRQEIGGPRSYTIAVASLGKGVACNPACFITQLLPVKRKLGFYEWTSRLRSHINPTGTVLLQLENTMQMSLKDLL
# Rango complex inh: inhibitors of Rango-importin beta complex formation | Q14974 | Rango CFP/YFP FRET sensor + importin beta, 45 min | Potency, µM (top dose mostly 92.2 µM), for inactives: at the top dose inhibition of complex formation | 340,000 tested, 0.031% active; active = rising FRET ratio curve, often small or poorly fitted; inconclusive = mostly compound fluorescence or quenching in the first reads; inactive = flat curves in all reads;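 further: potency means the concentration at half of the fitted maximal effect; 0% = DMSO wells and 100% = buffer wells lacking importin beta; nearly all actives have a fitted effect of over 15% in size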
#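 FRET biosensor (snurportin 1 IBB flanked by EYFP and cerulean), 50 nM, with compound 5 min, then 0.125 microM importin beta in PBS, 1 mM DTT, 0.02% Tween-20, 0.1% BSA. CFP/YFP ratio read after 45 min at room temperature; pre-read flags interference.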
# miR-21 reporter: raises the signal of a miR-21 reporter; HeLa miR-21 FLuc reporter, luciferase, 48 h; Potency, µM (highest dose often 38.3 µM), inactives show at the top dose reporter change, positive = more light; 340,000 tested, under 10 active; AID 2288; active = well fitted rising curve with a large enough effect; inconclusive = small, poorly fitted or top-dose-only effect; inactive = no such curve, though single readings can be large or run the other way;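 further: % of control where 0% means no effect; miR-21 action dims this reporter so a rising signal means less miR-21 action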
#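 Compounds were titrated across several concentrations (up to approximately 40 uM) and incubated 48 hours with HeLa miR-21-FLuc reporter cells (miR-21 target sequence downstream of FLuc, endogenous miR-21). Readout was firefly luciferase luminescence after lytic detection reagent.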
# An asterisk follows results filed as active; ? = inconclusive; nt = no result given; & = joins results of further samples. These rows are one share of the data; rates above refer to the full screens.
Rango dissoc inh,GLA inh pH 4.5,Rango complex inh,miR-21 reporter,molecule
-22%,1,4.0%,-62%,O=C(Nc1ccc2c(c1)ncn2-c1ccccc1)c1ccco1
12%,1,-6.0%,-35%,CCCC(=O)c1ccc(N2CCC(C)CC2)c(F)c1
-6%,-13,4.1%,24%,CC(C)S(=O)(=O)c1csc(NC(=O)Nc2ccc(Cl)cc2)c1Cl
0%,-2,0.4%,-10%,CCOc1ccc(C(=O)OCC(=O)NCc2ccco2)cc1OCC
3%,-5,2.4%,-2%,CC1=NN(Cc2ccccc2)C(=O)/C1=C/c1ccc(N(C)C)cc1
-9%,nt,?,-6%,O=C(NC1CCCC1)C(c1ccccn1)N(Cc1ccc(F)cc1)C(=O)c1csnn1 (stereo not given)
13%,nt,4.3%,nt,COc1ccc(CNc2ccc(S(=O)(=O)N3CCN(C)CC3)cn2)cc1OC
-2%,-3,2.3%,?,O=C(Nc1ccc(-c2cnco2)cc1)c1ccc(F)cc1F
-17%,2,?,4%,Cc1c(C(=S)NC(=O)C2CC2)c(=O)n(-c2ccccc2)n1C
-10%,nt,0.2%,-47%,CC(=O)c1ccc(NC(=O)Cc2cccs2)cc1
2%,7,1.8%,-2%,O=C(c1ccco1)N1CCN(Cc2nc3ccccc3c(=O)n2-c2ccc(F)cc2)CC1
6%,13,-0.6%,0%,O=C(Cn1cnc2ccc(Cl)cc2c1=O)c1cccs1
2%,nt,-1.2%,nt,Cc1ccc(NC(=O)c2nc[nH]c2C(=O)N2CCc3ccccc3C2)cc1
-4%,4,5.3%,-13%,Cc1nn(C)cc1/C=N/n1nnnc1N
1%,-4,0.1%,0%,COc1ccccc1NS(=O)(=O)c1cc(NC(=O)c2ccc3ccccc3n2)ccc1Cl
12%,nt,-1.0%,-65%,Cc1ccccc1NC(=O)c1ccc2ccccc2c1
29%,-7,-2.0%,-7%,O=C(NNS(=O)(=O)c1ccccc1)c1cccnc1
2%,9,4.3%,-6%,CC1CCCC(C(=O)O)N1C(=O)CCSC(=O)c1ccccc1 (stereo not given)
-14%,-6,-1.1%,-10%,O=C(NC1CCS(=O)(=O)C1)OC1CCCCC1 (stereo not given)
-20%,1,2.3%,-5%,CCc1ccccc1N(C(C)=O)c1nc(CCl)cs1
28%,-2,-0.4%,-2%,Cn1cc(S(=O)(=O)Nc2ccc(OC(F)(F)F)cc2)c(=O)n(C)c1=O
-10%,nt,-2.6%,nt,c1cc(-c2cc3cc(N4CCOCC4)ccc3o2)cs1
-4%,-2,4.9%,4%,CCCC(=O)NC1=C(C#N)C2(CCCCC2)Cc2ccccc21
-5%,-1,0.4%,0%,Cc1ccc(N2C(=O)c3ccc(C(=O)O)cc3C2=O)cc1C
11%,1,4.2%,0%,O=C(NNc1cccc(Cl)n1)Nc1ccccc1
-9%,4,-0.3%,-1%,COc1ccccc1C1/C(=C(/O)c2ccc(C)cc2)C(=O)C(=O)N1CC(C)O (stereo not given)
1%,nt,7.7%,-13%,Cc1ccc(C)c(NC(=O)N2CCCCCC2)c1
-1%,nt,0.5%,nt,CC[C@@]1(C(=O)OC)N[C@H](CN(C)C(=O)Nc2ccc(Cl)cc2)[C@@H]2C(=O)N(C)C(=O)[C@@H]21
23%,5,-1.8%,-3%,O=C(Cc1ccccc1)N[C@@H](Cc1ccccc1)C(=O)O
?,-9,0.7%,3%,Cc1cc(C)cc(NS(=O)(=O)c2ccc3[nH]cc(C(=O)N4CCc5ccccc54)c(=O)c3c2)c1
-11%,-8,3.4%,2%,CC(NC(=O)C12CC3CC(CC(C3)C1)C2)C(=O)N/N=C/C1=C(N2CCOCC2)C(=C\c2cccc([N+](=O)[O-])c2)/CC1 (stereo not given)
-10%,nt,4.8%,1%,Cc1ccc2nc(C)cc(C(=O)N/N=C/c3ccncc3)c2c1
1%,nt,-1.6%,0%,COc1ccc(OC)c(NC(=O)CCNS(=O)(=O)c2ccc3[nH]c(=O)oc3c2)c1
1%,5,-3.3%,-9%,Cc1ccc(S(=O)(=O)N(CC(=O)NCc2ccco2)C2CCCCC2)cc1
-11%,nt,0.3%,nt,Oc1ccc2ccccc2c1CNc1ccc2ccccc2c1
-13%,nt,-0.9%,nt,COc1ccccc1N1CC(C(=O)Nc2ccc(S(=O)(=O)N3CCCC3)cc2)CC1=O (stereo not given)
1%,6,-2.2%,-15%,COC(=O)/C=C/c1ccc2c(c1)OCO2
3%,nt,2.3%,-58%,Cc1cc2oc(=O)cc(CN(C)Cc3ccccc3F)c2cc1Cl
-17%,7,3.5%,24%,Cc1nc2cc(-c3cccc(F)c3)nn2c(C)c1CCC(=O)N1CCN(c2ccccn2)CC1
5%,-1,-0.3%,-1%,CC(=O)NC1CCC(C(=O)O)(c2ccccc2)C1 (stereo not given)
-2%,nt,3.5%,-3%,COc1ccc(NC(=O)c2cc(-c3ccncc3)nc3ccc(Br)cc23)cc1OC
2%,2,0.3%,4%,COC(=O)C(Cc1ccc(O)cc1)NC(=O)C(CC(=O)OC(C)(C)C)NC(=O)OC(C)(C)C (stereo not given)
14%,-7,4.5%,3%,CC(NC(=O)COC(=O)Cc1ccsc1)c1ccccc1 (stereo not given)
-11%,6,5.2%,-2%,O=c1oc(-c2ccco2)nc2c1cnn2-c1ccccc1
-14%,1,?,-3%,O=C(C[n+]1cc(-c2ccc(Cl)cc2)n2c1CCC2)N1c2ccccc2Sc2ccccc21
-12%,-11,4.5%,nt,COc1cccc(-c2ccc3ncnc(NCc4cccs4)c3c2)c1
8%,-1,0.0%,-12%,COCCOC(=O)c1[nH]c2c(c1C)C(=O)CC(c1ccc(N(C)C)cc1)C2 (stereo not given)
-21%,2,-1.4%,11%,CC(C)(C)c1ccc(CN2N=Nc3ccccc3S2(=O)=O)cc1
-8%,-7,0.2%,-7%,CC(O)c1nc2ccc(Cc3ccc4nc(C(C)O)[nH]c4c3)cc2[nH]1 (stereo not given)
-9%,1,3.7%,-10%,COc1cc(NC(=O)COc2c(C)cc(C)cc2[N+](=O)[O-])c(OC)cc1Cl
7%,nt,-6.4%,nt,NC(=O)c1ccnc2c(O)cccc12
-14%,-9,0.4%,17%&7%,CCOC(=O)C1CCCN(S(=O)(=O)c2ccc(F)c(C(=O)Nc3ccc(F)c(F)c3)c2)C1 (stereo not given)
-1%,nt,0.1%,nt,Nc1nc(-c2ccccc2)nc(-c2ccccc2O)n1
34%,nt,-1.1%,-15%,C/C(=N\NC(=O)c1ccc(F)cc1)c1cccc(NC(=O)c2cccc(F)c2)c1
-3%,3,-3.7%,-9%,O=C(c1cc2cc([N+](=O)[O-])ccc2oc1=O)n1cccn1
-9%,3,-0.2%,-5%,Cc1cc(NC(=O)COC(=O)COc2ccc3c(c2)CCC3)no1

# (cont.)
Rango dissoc inh,GLA inh pH 4.5,Rango complex inh,miR-21 reporter,molecule
0%,3,-1.9%,-8%,CCOc1cc(/C=N/NC(=O)CN(CCc2ccccc2)S(=O)(=O)c2ccc(NC(C)=O)cc2)ccc1O
17%,2,-0.6%,0%,COC(=O)C(CCSC)NC(=O)C(NC(=O)C1CCC(C)CC1)C(C)C (stereo not given)
-2%,nt,?,nt,CC(=O)c1cccc(S(=O)(=O)N2CCn3cccc3C2C)c1 (stereo not given)
-7%,-5,5.4%,1%,O=C(COC(=O)C1CCC1)Nc1ccc(Oc2ccccc2)cc1
-13%,1&2,-0.4%,0%,COc1ccccc1OCC(O)CO (stereo not given)
-14%,nt,?,17%,COc1cc2c(cc1OC)C(C)N(CC(=O)Nc1ccc(C)c(S(=O)(=O)N3CCOCC3)c1)CC2 (stereo not given)
16%,nt,4.9%,-10%,COc1cc(OC)cc(C(=O)NC(=S)Nc2ccc3[nH]c(=O)[nH]c3c2)c1
1%,2,2.3%,-1%,CCCCOc1c(C(=O)Nc2ccccc2)nnn1-c1ccccc1
-11%,-1,?,-15%,CC1(C)CC(=O)C2=C(C1)Nc1cc3c(cc1C2c1ccc2c(c1)OCO2)OCO3 (stereo not given)
-5%,nt,-2.9%,-11%,Cc1nn(-c2ccccc2)c(C)c1-c1nnc(C(F)(F)F)o1
0%,nt,-2.3%,-6%,Cc1nc(-c2ccc(NC(=O)C(C)(C)C)cc2)c(-c2ccccc2)o1
1%,-8,0.7%,-1%,CC(C)OCC(O)CN1CCN(CC(O)COc2ccc3c(c2)OCO3)CC1 (stereo not given)
-2%,nt,-1.5%,nt,Cc1ccc(CNC(=O)CNC(=O)c2ccc(C(C)(C)C)cc2)n1C
nt,-4,nt,-2%,O=C(CSc1nc(N2CCCCC2)nc(N2CCCCC2)n1)N1CCc2ccccc21
0%,-6,0.9%,-49%,C=CCn1c(C)cc(C(=O)CSc2n[nH]c(N)n2)c1C
1%,3,0.3%,-1%,COc1cc(OC)cc(-n2nnnc2SCC(=O)Nc2nc3c(s2)CCCC3)c1
-13%,1,3.1%,-17%,CSc1nncc(/C(C)=N\Nc2ccccc2)n1
2%,-5,0.8%,1%,CC1(C)CC(=O)C/C(=N\NC(=O)Cc2ccccc2)C1
1%,nt,-3.0%,-6%,Cc1cnc(=O)[nH]c1SCc1cccc(C(F)(F)F)c1
32%,nt,0.9%,0%,O=c1c2c([nH]c3ccccc13)CCC2
1%,9,-2.5%,-1%,Cc1ccc(NC(=O)c2ccc(-c3nn(C)c(=O)c4ccccc34)cc2)cc1
-12%,-4,-3.0%,-3%,COc1ccc2cc(C(=O)NCc3ccccc3)c(=Nc3ccc(C(=O)O)cc3)oc2c1
-4%,nt,-1.7%,nt,C[C@]12c3[nH]c4ccc(Cl)cc4c3CCN1C(=O)[C@@H](CC(=O)NCc1cccc(C(F)(F)F)c1)C[C@@H]2C(=O)N1CCCCC1
0%,1,5.0%,2%,Cc1nnc(SCC(=O)NC2CC2)n1CCc1ccccc1
-14%,5,-1.6%,-30%,CCCNC(=O)c1ccc2c(c1)ncn2-c1ccccc1OC
0%,-5,0.1%,9%,C/C(=N\NC(=O)CSCc1ccccc1Cl)c1cc(O)ccc1O
10%,nt,5.9%,3%,Cn1c(CNC(=O)CCNC(=O)c2cccc(Cl)c2)cc(=O)n(C)c1=O
-20%,nt,0.5%,-5%,COCCN1CCN(C(=O)C2CCC(=O)N(CCc3cccc(F)c3)C2)CC1 (stereo not given)
-8%,nt,-4.1%,nt,COc1ccc(C)cc1NC(=O)CSc1nnc2ccc(-c3cccnc3)nn12
